RN4220 kill – S. aureus RN4220 growth inhibition | OD600, 16 h | inhibition, % (test concentration not listed) | hit rate 0.33% among 330,000 | AID 1259311;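 active means z-score of -3 or lower and OD600 up to 0.18 on both plates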;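 further: plate controls were untreated cells for no effect and reference antibiotic for full effect; stock transfer was 100 nL into about 80 µL; one replicate is shown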
PrP UTR inh – inhibition of PrP 5' UTR reporter expression. hit rate 0.35% among 340,000. AID 488862. cell-based PrP 5' UTR mRNA reporter, plate reader. inhibition, % (no concentration beside the values);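 active means every replicate at 50% or more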;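 further: 0 = median of the neutral control wells; tested in H4 reporter cells; numbers are from one replicate; inactives centre near -14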
Bead autofluor – flagged as autofluorescent in microsphere protease counterscreen; fluorescence intensity (concentration not given with the values); hit rate 3.1% among 360,000; compound autofluorescence counterscreen, microsphere flow cytometry; stronger effect = higher value;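 active means at least 3 SD above the mean of all compounds, about 16000 in these data; inconclusive means too few beads counted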;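 further: 100 nL of 1 mM stock went into each well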
Mtb hypoxia rep – inhibitors of hypoxia-regulated fluorescent reporter in Mycobacterium tuberculosis; M. tuberculosis hypoxia-regulated fluorescent reporter, fluorescence; hit rate 0.1% among 300,000; AID 1159583; fluorescence inhibition, % (no concentration beside the values);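 active means 35 to 45% if threefold the growth effect, above 45% if 1.5-fold the growth effect; inactive means the rest, general growth blockers included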;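 further: wells of about 50 µL received 100 nL stock; 0% = vehicle wells and 100% = reference inhibitor wells; whole bacteria with a GFP reporter of the hypoxia response; strong numbers were not always called active; many hits fall short of the cut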
BJeLR viability – kills HRASV12-expressing BJeLR cells. hit rate 0.17% among 300,000. AID 1554. inhibition, % (concentration not given with the values). BJeLR (HRASV12) viability, CellTiter-Glo ATP luminescence, 48 h; reference of the scale not given here;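 active means replicate mean above 50%; inconclusive means above 50% but judged a plate artefact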;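 further: 50 nL library stock added to about 25 µL; numbers are from one replicate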
Sa ugtP lethal – compounds lethal to S. aureus RN4220 ugtP deletion mutant. OD600 growth, 16 h; some inactives read as strong as hits. growth inhibition, % (no concentration beside the values). AID 1259309. hit rate 0.54% among 330,000;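 active means z-score under -3 and OD600 up to 0.15 on both plates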;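 further: plate controls were untreated wells for no effect and antibiotic for full effect; wells of about 80 µL received 100 nL stock; the first replicate is given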
Mtb hypoxia rep growth – also measured in Mtb hypoxia rep; calls as there; growth inhibition, %; measured here: M. tuberculosis growth (absorbance);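 0% = vehicle and 100% = reference antibiotic; read after six days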
* = called active by the depositor; ? = inconclusive; nt = no result given.

entry	canonical_smiles	RN4220 kill	PrP UTR inh	Bead autofluor	Mtb hypoxia rep	Mtb hypoxia rep growth	BJeLR viability	Sa ugtP lethal
1	COCCCNC(=S)N1CCN(S(=O)(=O)c2ccc(OC)cc2)CC1	2.1	-19	4115	-15	0	-7	0
2	Cc1cc(NC(=O)CSc2nc3ccccc3n2CC(C)C)no1	nt	-11	3784	nt	nt	-2	nt
3	CCC(C)[C@H](NC(=O)N1CCN(C)CC1)C(=O)OC (stereo partly drawn)	3.3	6	2183	9	0	nt	0
4	COC(=O)C1(S(=O)(=O)C2(C(=O)OC)CCCC2)CCCC1	2.5	-7	15699	2	2	0	3
5	CC(CCc1ccco1)NC(=O)CCc1nnc2ccc(NCc3ccccc3)nn12 (stereo not drawn)	-0.3	-3	5758	10	-1	-3	10
6	c1ccc(-c2csc3ncnc(N4CCc5ccccc5C4)c23)cc1	-6.5	-19	8919	11	0	-8	-17
7	COc1cc(CC(=O)NCCc2ccc(OCc3ccccc3)cc2)c([N+](=O)[O-])cc1OC	17	7	2774	nt	nt	-3	-4
8	Cc1ccc(C2CN=NC23CCc2ccccc2C3=O)cc1 (stereo not drawn)	-2.9	-36	5391	6	16	1	0
9	Cc1cccc(NC(=O)CC2Nc3cccc4cccc(c34)NC2=O)c1 (stereo not drawn)	-1.9	-5	17191*	0	6	1	-18
10	CC(=O)Nc1cc(C(=O)OCC(=O)c2ccc(C)cc2)ccc1C	8.0	-40	2431	4	5	-5	7
11	CCOC(=O)c1ccc(NC(=O)C2CCN(S(=O)(=O)CC)CC2)cc1	-1.0	-20	3546	0	9	6	-4
12	O=C(On1c(-c2ccccc2)nc2ccccc2c1=O)c1ccco1	9.2	5	5016	5	8	-2	7
13	CC(C)n1c(SCC(=O)N2CCN(C(=O)c3ccco3)CC2)nc2c1c(=O)n(C)c(=O)n2C	3.6	-6	?	9	6	10	4
14	Cc1ccc(C(=O)C[n+]2ccc(-c3nnc4n3CCC4)cc2)cc1	4.0	-21	1940	8	-1	-1	6
15	CCC1CCC2(CC1)SCC(=O)N2c1ccccc1 (stereo not drawn)	-1.5	nt	nt	0	-12	-3	-11
16	O=P(N1CCCCC1)(N1CCCCC1)C(Cl)(Cl)Cl	4.9	-20	9095	13	8	-6	0
17	COc1ccc(-n2nc(C(=O)N3CCC(C#N)CC3)c3c4ccccc4n(C)c3c2=O)cc1	3.5	-7	5386	1	0	-14	10
18	Nc1nnc(CC(=O)N/N=C/c2ccc(-c3ccccc3Cl)o2)s1	nt	-21	3047	nt	nt	-7	nt
19	CCOC(=O)Cn1nnnc1C(CC)N(Cc1ccccc1)Cc1cc2cc(C)ccc2[nH]c1=O (stereo not drawn)	3.2	-25	11906	1	9	3	4
20	Cn1cccc2[nH]c(=O)nc1-2	2.8	-22	3908	13	-4	5	1
21	O=C(COC(=O)c1ccc([N+](=O)[O-])s1)Nc1ccccc1	14	-18	8917	2	7	10	13
22	COCCn1nnnc1C(c1ccccc1OC)N1CCN(C(=O)c2ccco2)CC1 (stereo not drawn)	0.6	2	3123	5	5	2	1
23	CCOC(=O)N1CCN(C(=O)CN2C(=O)CC(C)(C)S(=O)(=O)c3ccccc32)CC1	-1.8	-27	9850	2	6	2	6
24	COc1ccc2occ(C(=O)c3ccccc3)c2c1	-1.1	-43	3746	10	8	1	7
25	O=C(NCc1ccccc1)C1CCCN(c2cnccn2)C1 (stereo not drawn)	-1.7	0	5145	6	9	5	2

(continued)
entry	canonical_smiles	RN4220 kill	PrP UTR inh	Bead autofluor	Mtb hypoxia rep	Mtb hypoxia rep growth	BJeLR viability	Sa ugtP lethal
26	O=C(c1ccccc1Sc1ccc([N+](=O)[O-])cc1Cl)N1CCOCC1	5.2	-30	2171	13	1	-1	0
27	Cc1cc2ncn(C(=O)c3c(-c4ccccc4)noc3C)c2cc1C	-0.4	-30	10201	11	12	-9	-4
28	CC(=O)NCCNC(=O)c1oc2ccccc2c1CSc1ncn[nH]1	7.9	-15	4822	11	-1	9	5
29	CCN(CC)CCNC(=O)c1ccc(NC(=O)c2ccc(F)cc2F)cc1	4.1	-13	2579	15	-3	-8	9
30	Cc1ccc(C)c(NS(=O)(=O)c2cc(C(=O)N3CCCC3)ccc2Cl)c1	10	-18	3642	-3	6	1	2
31	O=C1[C@H]2[C@@H](c3ccc(Cl)cc3)N3C(=O)N(c4cccc(Br)c4)C(=O)[C@@]3(Cc3ccc(Cl)cc3)[C@H]2C(=O)N1C1CCCCC1	nt	-22	4073	nt	nt	8	nt
32	O=C(O)c1ccccc1SCC(=O)N1CCc2ccccc21	1.7	-15	3424	9	15	-11	1
33	CCOC(=O)c1nc(NCc2ccccc2)sc1C	3.6	-21	5511	-7	4	11	1
34	COCCNc1nc(SC)nc2sc3c(c12)CCN(C)C3	0.3	-36	3834	6	7	5	4
35	COc1cccc(-c2nc3n(n2)C(c2cccs2)C(C(=O)Nc2cccnc2)=C(C)N3)c1 (stereo not drawn)	-0.3	85*	5345	nt	nt	-4	5
36	COc1ccccc1-c1nnc(NC(=O)c2ccc(S(=O)(=O)N(C)C)cc2)o1	0.5	-18	3567	-1	7	2	-7
37	COc1ccc(CNS(=O)(=O)c2ccc3c(c2)CCN3C(=O)C2CC2)cc1	2.5	9	8777	14	21	4	3
38	COc1cc2ccccc2cc1C(=O)N1CCCC(C(F)(F)F)C1 (stereo not drawn)	1.9	-18	3474	7	6	nt	1
39	O=C(NC1CCN(Cc2ccccc2)C1)c1cc(S(=O)(=O)N2CCOCC2)ccc1Cl (stereo not drawn)	2.9	-10	4132	7	9	nt	10
40	Cc1nn(-c2ccccn2)c2c1-c1nc(N3CCOCC3)ncc1CC2	2.7	-16	3191	11	12	-4	-20
41	Cc1cccc(NC(=O)Nc2nnc(-c3ccccc3)o2)c1	4.2	-16	2010	6	0	2	2
42	CS(=O)(=O)N1CCN(C(=O)Cc2ccccc2Cl)CC1	4.0	-43	4825	2	-6	5	-2
43	COCCNC(=S)N/N=C(\C)c1ccccc1F	nt	-6	4243	nt	nt	8	nt
44	COc1ccc(NC(=O)c2cccn(CC=C(C)C)c2=O)cc1	1.1	-27	4786	10	16	2	-3
45	CCCCN(CCCC)CC(O)Cn1c2ccccc2c(=O)c2ccccc21 (stereo not drawn)	2.5	nt	?	8	1	5	6
46	CCCN(CCC)C(=O)CC(c1ccccc1)C1CCOC(C)(C)C1 (stereo not drawn)	6.7	-36	4801	14	7	1	6
47	Cc1ccc(C2(CCNCc3ccc(N(C)C)cc3)CCOC(C(C)C)C2)cc1 (stereo not drawn)	nt	-7	3902	nt	nt	5	nt
48	O=C(NC1CCC(O)CC1)c1cc(-c2ccco2)nc2ccccc12 (stereo not drawn)	-0.4	-5	4405	-6	3	3	-10
49	O=C(CCNC(=O)c1ccco1)NCCN1C(=O)S/C(=C\c2ccc(F)cc2)C1=O	0.4	-38	5624	3	4	nt	-2
50	CCCCCC(=O)Nc1cccc(C2=NOC3(C2)CC(C(N)=O)N(C(=O)c2ccc(OC)cc2)C3)c1 (stereo not drawn)	7.5	nt	nt	7	7	nt	8

6 entries picked at random from the list so far:
entry	canonical_smiles	RN4220 kill	PrP UTR inh	Bead autofluor	Mtb hypoxia rep	Mtb hypoxia rep growth	BJeLR viability	Sa ugtP lethal
28	CC(=O)NCCNC(=O)c1oc2ccccc2c1CSc1ncn[nH]1	7.9	-15	4822	11	-1	9	5
41	Cc1cccc(NC(=O)Nc2nnc(-c3ccccc3)o2)c1	4.2	-16	2010	6	0	2	2
16	O=P(N1CCCCC1)(N1CCCCC1)C(Cl)(Cl)Cl	4.9	-20	9095	13	8	-6	0
24	COc1ccc2occ(C(=O)c3ccccc3)c2c1	-1.1	-43	3746	10	8	1	7
8	Cc1ccc(C2CN=NC23CCc2ccccc2C3=O)cc1 (stereo not drawn)	-2.9	-36	5391	6	16	1	0
35	COc1cccc(-c2nc3n(n2)C(c2cccs2)C(C(=O)Nc2cccnc2)=C(C)N3)c1 (stereo not drawn)	-0.3	85*	5345	nt	nt	-4	5

Compound profiles (already shown).
Record of Cc1nn(-c2ccccn2)c2c1-c1nc(N3CCOCC3)ncc1CC2 → RN4220 kill: 2.7; PrP UTR inh: -16; Bead autofluor: 3191; Mtb hypoxia rep: 11; Mtb hypoxia rep growth: 12; BJeLR viability: -4; Sa ugtP lethal: -20
Record of CCCCN(CCCC)CC(O)Cn1c2ccccc2c(=O)c2ccccc21 (stereo not drawn) → RN4220 kill: 2.5; PrP UTR inh: nt; Bead autofluor: ?; Mtb hypoxia rep: 8; Mtb hypoxia rep growth: 1; BJeLR viability: 5; Sa ugtP lethal: 6

(more compounds)
entry	canonical_smiles	RN4220 kill	PrP UTR inh	Bead autofluor	Mtb hypoxia rep	Mtb hypoxia rep growth	BJeLR viability	Sa ugtP lethal
51	CCc1nnc(NS(=O)(=O)c2ccc(NC(=O)c3ccco3)cc2)s1	-1.2	-12	4222	7	-3	-1	0
52	COc1cc(/C=C2\C(=O)NN(c3ccc(C)cc3)C2=O)cc([N+](=O)[O-])c1O	2.8	-8	4554	4	-1	-1	6
53	CN1CCC(=NNC(=O)CN(c2ccc(Oc3ccccc3)cc2)S(C)(=O)=O)CC1	6.4	-31	7120	6	6	-13	8
54	CCCCCCCNC(=O)C1(CC2CC(c3cccc(Br)c3)=NO2)CCN(C(=O)c2ccccc2)CC1 (stereo not drawn)	3.5	-34	4159	4	11	5	11
55	COC(=O)c1[nH]c2ccc(C)cc2c1NS(=O)(=O)c1ccc(F)cc1	-0.9	-9	4081	nt	nt	4	-8
56	Cc1ccc(NC(=O)c2cc(=O)n(Cc3ccccc3)c(=O)[nH]2)cc1C	-1.1	-24	4453	-3	8	0	-7
57	CC1=C2C3OC(=O)C(C)C3CC[C@@]2(C)C=CC1=O (stereo partly drawn)	8.3	2	6764	-5	-2	-4	5
58	CC(=O)C1=C(C)NC(SCC(N)=O)=C(C#N)C1C (stereo not drawn)	-4.3	-34	3029	12	8	-8	-4
59	O=C(O)c1cccc(S(=O)(=O)N2CCC(Cc3ccccc3)CC2)c1	5.1	-20	4090	14	-1	-5	14
60	Cn1c(=O)c2c(nc(Oc3ccc4ccccc4c3)n2C)n(C)c1=O	3.1	-2	14881	9	6	4	0
61	COCCC(=O)Nc1ccc2c(c1)CN(C(=O)c1ccc(CSC)o1)CC2	2.7	-6	3744	-8	9	-8	-3
62	Cc1ccc(C(=O)NC(=O)CSc2nnc(C)s2)cc1	3.4	-18	5932	8	6	-2	2
63	OCCCc1nc2n(n1)C(c1ccccc1)C=C(c1ccc(F)cc1)N2 (stereo not drawn)	-0.4	-32	11036	-3	6	1	-3
64	COc1ccc(OC)c(C2=Nn3c(nnc3-c3cccc(OC(C)C)c3)SC2)c1	7.8	14	16655*	6	0	-4	-16

Source: PubChem
